Lassa entry inh: inhibitors of Lassa virus binding or cell entry; Lassa virus pseudotype entry inhibition, cell reporter; control for the full effect not named in the record; actives 1.2% (n = 300,000); Potency, µM (highest dose often 37.9 µM), without a hit: at the highest dose activity change, negative = inhibition, most hits filed as inhibitors; active means well fitted inhibition curve with a large enough effect; inconclusive means small, poorly fitted or top-dose-only effect, or effect the other way; inactive means flat fitted curve, though single readings scatter; tested in HEK293 cells; also: % is scaled to controls: 0 for no effect and ±100 for the full control effect; nearly all actives have a fitted effect of over 50% in size; luciferase read-out
Cruzain Triton: cruzain (T. cruzi) inhibition with detergent; Potency, µM, without a hit: max response, negative = inhibition, most hits filed as inhibitors; P25779; purified cruzain, Z-FR-AMC fluorescence, 0.01% Triton; actives 0.43% (n = 200,000); AID 1478;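 also: plate controls were neutral wells for no effect and buffer without enzyme for full effect; nearly all actives have a fitted effect of over 40% in size; top concentration of the series not given in the record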
Target sequence (P25779 123-467 limits assumed): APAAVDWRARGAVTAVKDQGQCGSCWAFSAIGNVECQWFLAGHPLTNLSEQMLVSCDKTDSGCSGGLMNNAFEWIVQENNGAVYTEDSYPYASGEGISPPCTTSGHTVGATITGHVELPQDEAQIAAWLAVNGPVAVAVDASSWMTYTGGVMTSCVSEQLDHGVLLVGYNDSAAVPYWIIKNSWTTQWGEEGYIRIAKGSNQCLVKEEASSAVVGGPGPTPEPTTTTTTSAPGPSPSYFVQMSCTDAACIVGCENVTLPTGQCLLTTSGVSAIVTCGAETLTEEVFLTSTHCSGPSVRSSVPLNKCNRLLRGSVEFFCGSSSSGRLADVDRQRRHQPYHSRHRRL
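Cysteine protease activity tested under reducing, mildly acidic conditions (100 mM sodium acetate pH 5.5, 5 mM DTT) plus 0.01% Triton X-100. Cruzain 1.5 nM; substrate Z-FR-AMC 2 uM; 15 min compound preincubation at room temperature.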
Cruzain inh noDet: cruzain (T. cruzi) inhibition without detergent. P25779. purified cruzain, Z-FR-AMC fluorescence, no detergent. Potency, µM, without a hit: max response, negative = inhibition, usual class: inhibitors. actives 2.3% (n = 200,000). AID 1476;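 also: plate controls were enzyme without inhibitor for no effect and buffer without enzyme for full effect; nearly all actives have a fitted effect of over 40% in size; top concentration of the series not given in the record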
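Purified cruzain at 1.5 nM, pre-incubated 15 min with compound at room temperature in 100 mM sodium acetate pH 5.5, 5 mM DTT, 0.00005% Triton X-100. Reaction started with 2 uM Z-FR-AMC; AMC fluorescence increase over 60 s gives rate.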
RE007 growth inh: less growth of the S. pombe RE007 Vpr strain; actives 0.21% (n = 360,000); S. pombe RE007 Vpr strain, BacTiter-Glo ATP luminescence, 24 h; control for the full effect not named in the record; Potency, µM (series often up to 92.2 µM), without a hit: at the highest dose activity change, negative = less growth; active = well fitted falling curve with a large enough effect; inconclusive = small, poorly fitted or top-dose-only effect; inactive = no such curve, though single readings can be large or run the other way;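 also: % is scaled to controls: 0 for no effect and ±100 for the full control effect; nearly all actives have a fitted effect of over 50% in size; the assay follows cell death caused by Vpr and the record does not say whether a fall means rescue or toxicity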
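Fission yeast RE007 carrying one integrated HIV-1 vpr copy, seeded at OD 0.01 in PMG+AL medium with 23 nL pinned compound. Grown 24 h at 30 degrees; viability read by BacTiter-Glo luminescence after 5 min.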
NS1 inh: inhibitors of influenza NS1 protein function | S. cerevisiae slowed by influenza A NS1, growth recovery by OD600 | Potency, µM (titrated, usually from 46.1 µM), without a hit: top-dose activity, positive = more growth | actives 0.4% (n = 270,000) | AID 2326; active means well fitted rising curve with a large enough effect; inconclusive means small, poorly fitted or top-dose-only effect; inactive means no such curve, though single readings can be large or run the other way; also: nearly all actives have a fitted effect of over 50% in size
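Recovery from NS1-induced slow growth read by OD600 in budding yeast switched to galactose assay medium (pH 6.0, -URA) at 1:100 dilution. Compound 23 nl per well; the matching strain lacking NS1 serves as control.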
2A StopGo: FMDV 2A StopGo reporter, luciferase signal. human cells with a luciferase reporter of 2A StopGo recoding; control for the full effect not named in the record. Potency, µM (top dose mostly 57.9 µM), without a hit: top-dose signal change, negative = less light. actives 1.2% (n = 410,000). AID 1159524; active = well fitted falling curve with a large enough effect; inconclusive = small, poorly fitted or top-dose-only effect; inactive = no such curve, though single readings can be large or run the other way; tested in HEK293T cells; also: % is scaled to controls: 0 for no effect and ±100 for the full control effect; nearly all actives have a fitted effect of over 45% in size; luciferase light after 4 h
MARV entry inh: blocks Marburg virus binding to or entry into cells; actives 1.8% (n = 300,000); Marburg virus pseudotyped entry inhibition, cell reporter; control for the full effect not named in the record; about a third of the inactives were read at about 46 µM; Potency, µM (titrated, usually from 37.8 µM), for the others: top-dose activity change, negative = inhibition, hits mostly inhibitors; AID 540276; active = well fitted inhibition curve with a large enough effect; inconclusive = small, poorly fitted or top-dose-only effect, or effect the other way; inactive = flat fitted curve, though single readings scatter; tested in HEK293 cells; about a fifth of its hits are not listed in these tables; also: % is scaled to controls: 0 for no effect and ±100 for the full control effect; luciferase read-out
SARS PLpro yeast: blocks SARS-CoV papain-like protease in a yeast assay. S. cerevisiae expressing SARS-CoV PLpro, growth rescue; control for the full effect not named in the record. Potency, µM (highest dose often 32.9 µM), for inactives: at the top dose activity, positive = growth rescue. actives 0.19% (n = 330,000). AID 485353; active means well fitted rising curve with a large enough effect; inconclusive means small, poorly fitted or top-dose-only effect; inactive means no such curve, though single readings can be large or run the other way; also: 0% is about no effect; nearly all actives have a fitted effect of over 55% in size; growth read by luminescence after 48 h
* = called active by the depositor; u = inconclusive; x = not tested or not shown; & = joins results of further samples; ! = repeats disagree; [ ] = dose if it differs, or a comment. Unless noted, calls follow the shape of the dose curve; as a rule, active = well fitted curve in the direction sought with a large enough effect; inconclusive = small, poorly fitted or top-dose-only effect, or another doubt; inactive = no such curve, though single readings can be large; an effect the other way counts as inactive or inconclusive. Potency is read from the fitted curve at half-maximal effect.

SMILES	Lassa entry inh	Cruzain Triton	Cruzain inh noDet	RE007 growth inh	NS1 inh	2A StopGo	MARV entry inh	SARS PLpro yeast
COc1cccc(-n2ccnc2SCC(=O)NCc2ccccc2)c1	3%	0.4%	-5%	-11%	-34%	-24%	4%	-2%
CC(C)(C)NC(=O)NC(=O)COC(=O)CCC1CCCC1	u	x	x	-2%	-31%	6%	u	0%
CCCOc1ccc(C2=CSC3=NCCN23)cc1Cl	x	x	x	-2%	0%	-17%	x	-2%
COCCNC(=O)C1CCCN(S(=O)(=O)c2ccc3c(c2)CC(C)N3C(=O)C2CC2)C1 (stereo not drawn)	x	x	x	0%	-3%	-5%	x	-3%
CN(C)/C=N/NC(=O)c1ccc(Cl)cc1	9%	x	x	3%	-1%	-12%	-12%[46.1 µM]	0%
Cc1oc2nc(SCC(=O)NCCCO)nc(N)c2c1C	3%	1.4%	3%	33%	13%	-18%	3%	7%
O=S(=O)(Cc1cc(NCc2ccccc2)nc(-c2ccccn2)n1)c1ccccc1	u	x	x	-11%	x	-23%	u	5%
O=C(OCCOc1cccc(Cl)c1)C1CCN(S(=O)(=O)c2ccccc2)CC1	2%	x	x	-5%	5%	-7%	22%	-2%
CC(C)CNC(=S)NNC(=O)c1csc2c1CCCC2	-12%	5.8%	2%	11%	-6%	69%[activator]	13%	-3%
CC(C)(C)NC(=O)NC(=O)CN1C(=O)NC(c2ccccc2)(c2ccccc2)C1=O	-22%[46.1 µM]	x	x	-10%	u	0%	u	0%
COc1ccc(C(=O)CN2C(=O)N(c3cc(C)cc(C)c3)S(=O)(=O)c3ccccc32)cc1	-14%[46.1 µM]	-2.0%	u	x	x	-5%	x	x
Cc1ccc(C)c(Nc2cc(C(=O)NC3CCCC3)c3ccccc3n2)c1	11%[46.1 µM]	-1.7%	-9%	x	x	82%[activator]	-3%[46.1 µM]	x
O=C(NCc1cccnc1)NC1(C(F)(F)F)Oc2ccc(Cl)cc2O1 (stereo not drawn)	x	-4.1%	0%	0%	-113%	u	x	-1%
CC(=O)Nc1ccc2c(CSc3nnc(N)s3)cc(=O)oc2c1	x	x	x	21%	u	-8%	x	-3%
Cc1ccc(OCC(=O)OC2=C(C(=O)c3ccccc3)N(C)S(=O)(=O)c3ccccc32)cc1	4%[46.1 µM]	-8.6%	-1%	x	x	-5%	-9%[46.1 µM]	x
Cc1nnc(N2CCN(c3cccc(Cl)c3)CC2)c2c1nnn2Cc1ccc(F)cc1	6%[46.1 µM]	0.7%	-3%	x	x	u	8%[46.1 µM]	x
CCCCCc1cc(=O)oc2c(C(CCN(CC)CC)c3ccc(N(C)C)cc3)c(OC)cc(OC)c12 (stereo not drawn)	x	x	x	0%	11%	-10%	x	8%
O=C(c1ccc(C(F)(F)F)cc1)C1CCCN(C(=O)CCn2cncn2)C1 (stereo not drawn)	x	x	x	-4%	3%	4%	x	-2%
COc1ccc(-c2nsc(NC(=O)c3ccccc3Br)n2)cc1	14%[46.1 µM]	-4.3%	12%	x	x	47%[activator]	u	x
CCOc1ccc(N/C=C/C(=O)c2ccc(C)cc2)c([N+](=O)[O-])c1	u	2.2%	-11%	-12%	5%	11%	u	-1%
COC(=O)CSc1nc(C)c2c(n1)CCCC2	x	x	x	12%	-1%	24%	x	1%
CCN(CC)S(=O)(=O)c1ccc(OC)c(NC(=O)c2cc3c(=O)n4ccccc4nc3s2)c1	0%	0.0%	-3%	-21%	1%	-16%	2%	18%
COc1ccc(S(=O)(=O)N2CCC(C(=O)NCCC(=O)Nc3ccc(Cl)cc3)CC2)cc1	x	x	x	6%	9%	-3%	x	10%
CC1CC(C)CN(c2nc(N(C)c3ccccc3)nc(N)c2[N+](=O)[O-])C1 (stereo not drawn)	x	x	x	-11%	-19%	-20%	x	-2%
O=c1c(-c2ccc(Cl)cc2)c[nH]n1-c1ccccc1	x	x	x	-22%	-5%	0%	x	14%
N=C(N1CCCc2ccccc21)N1CCCc2ccccc21	-15%[46.1 µM]	x	x	-26%	x	-11%	u	x
CC(=O)OCC(=O)c1c[nH]c2ccccc12	x	x	x	0%	0%	1%	x	-10%
CCCCn1c(N)c(Sc2ccccc2)c(=O)[nH]c1=O	u	-1.0%	-1%	0%	0%	0%	-18%	-3%
Cn1c(SCC(=O)N2CCCc3ccccc32)ncc(C(=O)Nc2ccccc2)c1=O	10%[46.1 µM]	0.4%	-5%	x	x	8%	x	x
CC(C)CC(=O)Nc1cc(C(F)(F)F)ccc1N1CCOCC1	18%	0.1%	0%	6%	u	-9%	14%	5%
CN1CCCC1CCNC1C2CC3CC(C2)CC1C3 (stereo not drawn)	-50%[14.3 µM]	9.3%	-1%	-2%	-2%	10%	13µM*	-4%
CCN1CNC(=S)N(c2cccc(C)c2C)C1	14%	6.2%	-13%	u	4%	7%	-5%	-3%
Brc1nc(Br)n(Cc2ccccc2)n1	18%[46.1 µM]	x	x	11%	-2%	-28%	11%[46.1 µM]	-3%
CC(C)CCC(C(=O)O)C(C)CC(=O)NNC(=O)c1ccco1 (stereo not drawn)	5%	x	x	-4%&-6%	2%&6%	-9%&-7%	16%&2%[46.1 µM]	3%&0%
O=C(Nc1ccc(F)cc1)c1nc[nH]c1C(=O)O	x	x	x	8%	2%	9%	x	-2%
CCNS(=O)(=O)c1ccc(CCC(=O)NCc2ccc3c(c2)OCO3)cc1	-1%[46.1 µM]	x	x	13%	3%	6%	4%[46.1 µM]	1%
CCCOC1CCCN(C(=O)c2cc(COc3ccc(F)c(F)c3)on2)C1 (stereo not drawn)	-12%	x	x	-8%	-5%	24%	3%	-1%
O=C(Nc1ccccc1)C1CCCCN1S(=O)(=O)c1ccccc1 (stereo not drawn)	15%	x	x	10%	x	-27%	-13%	-3%
Cc1ccc(S(=O)(=O)NC(=O)COc2ccccc2C)c(C)c1	u	x	x	13%	-37%	-15%	-5%	2%
Cc1ccnc(NC(=O)c2ccc(C(=O)c3ccccc3)cc2)c1	2.2µM*	x	x	u	x	-39%	6.3µM*	-15%
CCOC(=O)c1nnc(-c2ccccc2)nc1NCc1ccccc1	-2%	0.7%	0%	-11%	-22%	-19%	21%	-7%
Cc1cccc(-c2nc(CCNC(=O)COc3ccccc3)cs2)c1	4%[46.1 µM]	-7.8%	20%	x	x	-9%	x	x
CC(=O)c1ccc(NC(=O)CSc2nnc(NC(=O)c3ccco3)s2)cc1	1%	x	x	-17%	-5%	21%	-14%	u
CCCCN(Cc1cc2cc(OC)ccc2[nH]c1=O)C(=O)COc1ccccc1	2%	x	x	4%	1%	-24%	5%&23%	x
Cc1ccc(C2=NN(C(=O)CCl)C(c3ccco3)C2)o1 (stereo not drawn)	14%	x	x	1%	-4%	u	u	3%
O=C(Nc1cccc(S(=O)(=O)C(F)F)c1)c1ccc(Cl)c(S(=O)(=O)N2CCOCC2)c1	u	-7.0%	-7%	4%	20%	40µM*	10µM*!	3%
COc1ccc(Cc2c(Cl)ncnc2Cl)cc1	0%	-3.3%	7%	-26%	9%	u	15%	-15%
CCc1c(C)nc2cc(-c3cc(OC)cc(OC)c3)nn2c1N1CCN(CCN2CCOCC2)CC1	22%	3.2%	17%	-11%	17%	u	u	20%
COc1ccccc1COc1ccc2c(C)c(CC(=O)O)c(=O)oc2c1C	x	x	x	9%	13%	-14%	0%	1%
CC1(C)C(C#N)=C(N)Oc2c1c(=O)oc1ccccc21	x	x	x	-9%	-5%	-19%	7%	1%
CCc1ccc(-c2nc(CN3CCC(C(=O)NCc4ccco4)CC3)c(C)o2)cc1	-1%	6.0%	-4%	-14%	4%	-7%	-24%	-11%
Cc1ccc2oc(-c3ccc(Cl)c(NC(=O)Cc4ccccc4)c3)nc2c1	12%[46.1 µM]	-1.5%	20%	x	x	27%	14%[46.1 µM]	x
Cc1cccc(/C=C/c2onc(C)c2S(=O)(=O)N2CCC(C(=O)N3CCC(C)CC3)CC2)c1	u	1.0%	u	-4%	5%	u	x	0%
COc1ccc(CN2CCC(C(=O)Nc3ccc(Oc4ccccc4)nc3)CC2)cc1F	u	x	x	-3%	5%	u	u	-4%
CCn1c2ccccc2c2cc(NC(=O)CSc3nnc(-c4ccccc4OC)n3N)ccc21	-1%	-3.4%	-15%	3%	-8%	-25%	u	-1%
Cc1cccc(CSc2nc(=O)c3c(n2C)NC(=O)CC3c2cc(F)cc(F)c2)c1 (stereo not drawn)	-9%[46.1 µM]	-3.4%	-6%	x	x	15%	2%[46.1 µM]	x
CCN(CC)CCn1c2c(c(SCC(=O)Nc3nc4ccc(C)cc4s3)nc1=O)CCC2	9%	x	x	-10%	x	-7%	u	x
Cc1cccc(C(=O)OCC(=O)N2CC(C)CC(C)C2)c1C (stereo not drawn)	-3%[46.1 µM]	x	x	-6%	x	19%	u	-10%
COc1ccc(NC(=O)COc2ccc(C(=O)c3ccc(F)cc3)cc2)cc1S(N)(=O)=O	6%	x	x	-8%	9%	-20%	-17%[46.1 µM]	0%
CN1C(=O)C(=Cc2ccccc2OCc2ccc(Cl)cc2)C(=O)N(C)C1=O	2%	-4.7%	15%	0%	4%	54%[activator]	u	-5%
More structures.
SMILES	Lassa entry inh	Cruzain Triton	Cruzain inh noDet	RE007 growth inh	NS1 inh	2A StopGo	MARV entry inh	SARS PLpro yeast
COc1cc(CNC(=O)c2ccc3oc(C(C)C)nc3c2)cc(OC)c1	x	x	x	5%	-9%	-3%	x	-1%
COc1ccc(-c2oc(NC(=O)CSc3ncn[nH]3)c(C#N)c2-c2ccc(OC)cc2)cc1	-25%	-8.3%	0%	4%	u	u	-2%	7%
O=C1NC(=S)S/C1=C/c1ccc(OC(=O)c2ccco2)cc1	3%[46.1 µM]	x	x	-2%	23%	u	30%[46.1 µM]	1%
Cc1cc(C)n(CCC(=O)Nc2ccc(-c3ccno3)cc2)n1	x	x	x	2%	-7%	-4%	x	1%

Source: PubChem BioAssay
